# RN4220 kill – S. aureus RN4220 growth inhibition; OD600, 16 h; inhibition, % (no concentration beside the values); actives 0.33% (n = 330,000);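 active = z-score of -3 or lower and OD600 up to 0.18 on both plates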;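 also: plate controls were untreated cells for no effect and reference antibiotic for full effect; stock transfer was 100 nL into about 80 µL; one replicate is shown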
# Bead autofluor – compound fluorescence in toxin protease inhibitor counterscreen. actives 3.1% (n = 360,000). AID 624483. compound autofluorescence counterscreen, microsphere flow cytometry; stronger effect = higher value. fluorescence intensity (concentration not given with the values);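 active = at least 3 SD above the mean of all compounds, about 16000 in these data; inconclusive = too few beads counted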;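 also: 100 nL of 1 mM stock went into each well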
# Mtb hypoxia rep – reduces hypoxia-regulated biosensor signal in M. tuberculosis | fluorescence inhibition, % (concentration not given with the values) | actives 0.1% (n = 300,000) | M. tuberculosis hypoxia-regulated fluorescent reporter, fluorescence | AID 1159583;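 active = 35 to 45% if threefold the growth effect, above 45% if 1.5-fold the growth effect; inactive = the rest, general growth blockers included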;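 also: wells of about 50 µL received 100 nL stock; 0% = vehicle wells and 100% = reference inhibitor wells; whole bacteria with a GFP reporter of the hypoxia response; strong numbers were not always called active; many hits fall short of the cut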
# BJeLR viability – kills HRASV12-expressing BJeLR cells | inhibition, % (no concentration beside the values) | actives 0.17% (n = 300,000) | BJeLR (HRASV12) viability, CellTiter-Glo ATP luminescence, 48 h; reference of the scale not given here | AID 1554;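 active = replicate mean above 50%; inconclusive = above 50% but judged a plate artefact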;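 also: 50 nL library stock added to about 25 µL; numbers are from one replicate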
# Sa ugtP lethal – compounds lethal to S. aureus RN4220 ugtP deletion mutant; actives 0.54% (n = 330,000); growth inhibition, % (no concentration beside the values); OD600 growth, 16 h; some inactives read as strong as hits; AID 1259309;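 active = z-score under -3 and OD600 up to 0.15 on both plates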;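 also: plate controls were untreated wells for no effect and antibiotic for full effect; wells of about 80 µL received 100 nL stock; the first replicate is given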
# PrP 5UTR inh – suppresses PrP 5' UTR mRNA reporter expression; cell-based PrP 5' UTR mRNA reporter, plate reader; inhibition, % (no concentration beside the values); actives 0.35% (n = 340,000);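 active = every replicate at 50% or more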;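 also: 0 = median of the neutral control wells; tested in H4 reporter cells; numbers are from one replicate; inactives centre near -14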
# Mtb hypoxia rep growth – further read-out of Mtb hypoxia rep, marked with its call; growth inhibition, %; measured here: M. tuberculosis growth (absorbance);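 0% = vehicle and 100% = reference antibiotic; read after six days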
# Starred values were filed as active, the others as inactive; ? = inconclusive; . = no result given; & = joins results of further samples. An unsorted share of the library. About 4% of those tested had a hit in this group.
1. O=C(O)C1C(=O)NCC1c1ccccc1 (stereo not drawn)
2. O=C(CCN1CCN(S(=O)(=O)c2ccc(F)cc2)CC1)Nc1ccccc1F
3. Cc1ccc(-c2[nH]ncc2C(=O)c2cccc(F)c2)c(O)c1
4. CCCc1cc(=O)[nH]c(SCc2cc(C(=O)OC)c(C)o2)n1
5. CCSC(SCC)[C@H](O)[C@@H](O)[C@H](O)[C@H](O)CO
6. N#Cc1cn(CC(=O)N2CCCC2)c2ccccc12
7. O=C(N/N=C/c1c[nH]c2ccccc12)c1ccn[nH]1
8. COc1ccc(C(=O)/C=C/c2ccc(OC(=O)c3cc(OC)c(OC)c(OC)c3)cc2)cc1

Assay by compound,1,2,3,4,5,6,7,8
RN4220 kill,1.3,1.8,1.0,7.0,.,1.7,.,2.7
Bead autofluor,3912,5437,3801,8853,4109,4766,4413,11006
Mtb hypoxia rep,8.7,5.7,-6.3,5.4,.,9.8,.,13.8
Mtb hypoxia rep growth,-7.2,8.0,11.3,5.7,.,14.5,.,11.5
BJeLR viability,-4.1,14.6,-9.9,0.5,-1.8,4.7,-0.3,1.4
Sa ugtP lethal,3.6,11.3,0.3,-5.8,.,-2.4,.,-3.4
PrP 5UTR inh,-12.9,-25.8,-3.8,-21.2,-5.1,-3.0,-3.3,13.6&-26.2

9. CC(C)(C)OC(=O)C(Cc1ccccc1)NC(=O)c1nc[nH]c1C(=O)N1CCN(c2ccccc2)CC1 (stereo not drawn)
10. COc1ccc(-c2sc(Nc3cccc4ccccc34)n[n+]2C)c(C)c1C
11. O=C1c2ccccc2C(=O)N1CCCCc1cn(C[C@H]2CC[C@H](Cn3cc(CCCCN4C(=O)c5ccccc5C4=O)nn3)O2)nn1
12. COc1ccc(C(=O)c2c(C)oc3ccc(O)c(CN4CCOCC4)c23)cc1
13. O=C(N/N=C/c1ccccc1F)NC1CCCCC1
14. Cc1cc(C(F)F)nn1CC(=O)NC1CCCCCC1
15. Cc1ccc2nc(NC(=O)CCCC(=O)O)sc2c1
16. COc1ccc(/C=N/NC(=O)c2nnn(-c3nonc3N)c2CN(C)C2CCCCC2)cc1

Assay by compound,9,10,11,12,13,14,15,16
RN4220 kill,8.8,-5.0,2.0,-2.6,.,1.3,4.2,.
Bead autofluor,.,3511,3983,5950,2442,5215,3261,6136
Mtb hypoxia rep,2.2,4.1,-0.7,-0.2,.,0.7,4.2,.
Mtb hypoxia rep growth,1.2,10.9,3.4,3.9,.,-4.1,4.6,.
BJeLR viability,.,.,.,5.3,4.3,-8.4,0.1,10.8
Sa ugtP lethal,5.7,3.4,3.5,-9.4,.,2.7,7.7,.
PrP 5UTR inh,.,-18.6,-3.4,-45.6,-46.6,0.2,49.1,-14.5

17. O=C(O)c1cnn(-c2ccccc2)c1-c1ccncc1
18. O=C(N/N=C/c1ccc(N2CCOCC2)cc1)c1ccc(NS(=O)(=O)c2cccs2)cc1
19. COc1cccc2cc(C(C)N(CCCN3CCOCC3)C(=S)Nc3cccc(C)c3C)oc12 (stereo not drawn)
20. O=C1NCCCC2c3c(cc(Br)c(O)c3Br)OC12N1CCOCC1 (stereo not drawn)
21. COC(=O)C1=NN(C(C)=O)C2(CC(=O)N(c3cccc(C)c3)C2=O)C1 (stereo not drawn)
22. Fc1ccc(CSc2nncn2NCC=Cc2ccccc2)cc1
23. CCn1c(SCC(=O)N2CCC(C)CC2)nnc1-c1ccc(S(=O)(=O)N2CCN(C)CC2)cc1
24. COc1ccc(NC(=S)Nn2cnnc2)cc1OC

Assay by compound,17,18,19,20,21,22,23,24
RN4220 kill,1.1,.,1.2,3.1,3.8,1.0,8.0,-1.3
Bead autofluor,2762,3951,3837,20273*,2655,.,?,4219
Mtb hypoxia rep,2.8,.,3.6,0.5,8.5,5.0,10.6,1.6
Mtb hypoxia rep growth,-8.2,.,4.0,7.1,4.3,8.5,-0.5,5.0
BJeLR viability,-7.7,-4.2,5.8,.,-6.2,.,-5.5,1.5
Sa ugtP lethal,5.3,.,0.5,4.6,9.1,-5.7,13.8,3.4
PrP 5UTR inh,-20.2,-23.8,-2.9,-8.3,-11.1,.,5.3,-10.9

25. Cc1ccc(NC(=O)/C(=C/c2cccs2)NC(=O)c2ccco2)cc1
26. O=C(NC1CCCCCC1)c1c(O)c2ccccc2[nH]c1=O
27. Cc1cccc(NC(=O)CN(C)C(=O)c2ccc(N3CCCCCC3)c([N+](=O)[O-])c2)c1C
28. CCCn1c2c(c(O)c(C(=O)Nc3ccc(OCC)cc3)c1=O)CCCC2
29. Cc1nn(C)cc1C(C(=O)NC1CCCCC1)N(C(=O)Cc1cccs1)c1ccc(C(C)C)cc1 (stereo not drawn)
30. CCOc1ccccc1NS(=O)(=O)c1cn(C)c(=O)n(C)c1=O
31. CS(=O)(=O)N(CC(=O)NC1CCCC1)Cc1ccc(Cl)cc1
32. Cc1c(C)n(CC(O)CNCCO)c2ccccc12 (stereo not drawn)

Assay by compound,25,26,27,28,29,30,31,32
RN4220 kill,1.6,3.6,0.3,11.3,-2.7,1.3,4.8,1.9
Bead autofluor,2481,2519,3869,2576,13055,.,17349*,2845
Mtb hypoxia rep,4.3,7.2,7.4,-5.0,-7.6,12.3,1.5,6.2
Mtb hypoxia rep growth,1.5,8.0,8.9,11.3,-4.1,3.9,-2.5,4.8
BJeLR viability,-20.7,-7.9,.,4.0,-9.8,-11.6,0.8,4.7
Sa ugtP lethal,-5.3,10.2,3.8,11.7,-16.1,-1.5,8.7,7.2
PrP 5UTR inh,-35.3,-71.7,13.6,-14.3,-2.0,.,-35.9,-12.7

33. CCOC(=O)CN1C(=O)S/C(=C/c2ccc(OC)c([N+](=O)[O-])c2)C1=O
34. COc1ccc(C(=O)N(CN2CCCC2=O)c2ccc(C)cc2)cc1
35. COc1ccc(CN2CCNC(=O)C2CC(=O)NCC2CCOCC2)c(C)c1C (stereo not drawn)
36. CCN1CCN(S(=O)(=O)c2ccc(Cl)c(C(=O)NCCOc3ccc(C)cc3)c2)CC1

Assay by compound,33,34,35,36
RN4220 kill,.,6.4,-1.5,6.0
Bead autofluor,2188,?,5732,.
Mtb hypoxia rep,.,15.3,8.4,-0.5
Mtb hypoxia rep growth,.,0.0,11.2,-3.4
BJeLR viability,6.0,-2.8,-1.0,.
Sa ugtP lethal,.,8.5,2.1,14.5
PrP 5UTR inh,-21.8,-27.2,8.8,-11.4
